# Source: PubChem BioAssay
# eIF4H FP inh: inhibitors of RNA binding by human eIF4H; 290,000 tested, 0.94% active; eIF4H fluorescence polarization binding assay; inhibition, % at 35 µM; AID 2012; Q15056;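 active = 50% or more with normal probe brightness, or confirmed in later tests; about a fifth of its hits are not listed in these tables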;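 also: calls also rest on retests at 20 µM and on dose response follow-up; 0% = protein and probe with vehicle and 100% = probe without protein; strong numbers were not always called active; many hits fall short of the cut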
# Rce1 inh: inhibitors of yeast Ras-converting enzyme; 290,000 tested, 0.27% active; Q03530; yeast membranes, quenched prenylated peptide cleavage fluorescence; calls only;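 active = fall in fluorescence gain of 50% or more versus controls, with final raw signal at or below 3038400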;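 also: plate controls were neutral control wells for no effect and wells lacking membranes for full effect; tested at 10 µM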
# UUG fidelity: yeast start codon fidelity modulation; S. cerevisiae UUG-firefly luciferase reporter, luminescence/redox ratio; activity score, % at 18.7 µM; 350,000 tested, 0.13% active; AID 602363;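 active = replicate mean at a twofold rise or more, about +100% in these data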;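 also: firefly luciferase made from a UUG start codon reports start codon fidelity; reporter light over untreated wells divided by growth signal over untreated wells; some hits fall short of that in this replicate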
# MT1-MMP act inh: MT1-MMP (human) activation inhibition; P50281; HT1080 RFP-PRO-GFP cells, GFP/RFP ratio fluorescence, overnight; percent of plate control window, DMSO zero; GFP/RFP ratio change, % at 20 µM; 360,000 tested, 0.061% active; AID 651647;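 active = GFP/RFP ratio change of at least 30% with cell ATP level not reduced by more than half and red fluorescence within 50% of control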; also: strong numbers were not always called active
#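 Assay system: HT1080 RFP-PRO-GFP cells | Dosing: 20 µM single dose, 1% DMSO | Incubation: Cells overnight before dosing, compound overnight, 37 °C, 5% CO2 | Evaluation: GFP/RFP fluorescence ratio | Control set: DMSO-only wells and HT1080 RFP-L50D-GFP cell wells as references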
# HIV Env fusion: inhibitors of HIV Env-mediated cell fusion | HeLa-JRFL Env/CEM21 cell fusion, luciferase | inhibition, % at 12.3 µM | 360,000 tested, 1.1% active;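 active = mean replicate inhibition score of at least 50 and every replicate individually at or above 50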;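 also: 0% = plate neutral controls and 100% = maraviroc near 300 nM; one replicate is shown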
# PABP FP inh: PABP-poly(A) binding inhibition; P11940; 290,000 tested, 1% active; AID 2014; inhibition, % at 35 µM; PABP-poly(A) RNA binding, fluorescence polarization;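 active = 50% or more with normal probe brightness, or confirmed in later tests; about a fifth of its hits are not listed in these tables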;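 also: calls also rest on retests at 20 µM and on dose response follow-up; controls were probe without protein and protein plus probe with vehicle; some compounds called inactive have numbers as strong as hits; many hits fall short of the cut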
# Target sequence (P11940 whole entry, looked up): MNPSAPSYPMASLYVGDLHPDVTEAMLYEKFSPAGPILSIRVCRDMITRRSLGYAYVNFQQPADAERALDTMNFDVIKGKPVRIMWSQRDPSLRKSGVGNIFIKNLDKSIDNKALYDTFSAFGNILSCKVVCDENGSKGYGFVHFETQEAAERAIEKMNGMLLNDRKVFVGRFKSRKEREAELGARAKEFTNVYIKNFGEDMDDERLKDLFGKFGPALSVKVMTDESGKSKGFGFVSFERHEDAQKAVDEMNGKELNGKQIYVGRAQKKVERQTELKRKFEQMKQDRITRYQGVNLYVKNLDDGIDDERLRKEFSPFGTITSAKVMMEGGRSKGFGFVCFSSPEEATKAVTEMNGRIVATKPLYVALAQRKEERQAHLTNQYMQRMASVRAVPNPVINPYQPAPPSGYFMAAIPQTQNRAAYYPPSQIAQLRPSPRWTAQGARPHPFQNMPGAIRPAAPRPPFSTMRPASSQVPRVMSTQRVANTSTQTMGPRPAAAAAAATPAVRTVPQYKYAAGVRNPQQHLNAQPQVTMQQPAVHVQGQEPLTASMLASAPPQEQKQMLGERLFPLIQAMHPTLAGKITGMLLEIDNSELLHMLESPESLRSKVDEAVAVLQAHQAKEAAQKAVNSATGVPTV
# CSC inhib: cancer stem cell inhibition; AID 2717; inhibition, % at 7.5 µM; 300,000 tested, 1.1% active; cancer stem cell-like cells viability, luminescence;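 active = mean at 75% or more and at least half the replicates too; tested in HMLE shEcad cells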;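 also: 0% = median of negative and 100% = median of positive control wells; the first replicate is given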
# MT1-MMP act inh RFP: second read-out of MT1-MMP act inh, no call of its own (marks repeat the call); RFP signal change, %; measured here: RFP expression control read;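 0 = vehicle wells; hits needed this value within 50% of zero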
# Numbers without * were called inactive; i = inactive; nt = no result given; & = joins results of further samples; [ ] = dose if it differs, or a comment. These rows are one share of the data; rates above refer to the full screens.
# Start of the listing, in advance (2 entries):
SMILES,eIF4H FP inh,Rce1 inh,UUG fidelity,MT1-MMP act inh,MT1-MMP act inh RFP,HIV Env fusion,PABP FP inh,CSC inhib
Cc1ccc(-c2csc(N(C)C(=O)c3c(C)nn(-c4ccccc4)c3Cl)n2)cc1,1,i,-21,-1,-7,nt,4,nt
COc1ccc(OC)c(-c2nc(C(=O)NC3CCN(Cc4ccccc4)CC3)cc3c2[nH]c2ccccc23)c1,-20,i,-4,1,-1,nt,-25,-1

# The whole of this part, from the start:
SMILES,eIF4H FP inh,Rce1 inh,UUG fidelity,MT1-MMP act inh,MT1-MMP act inh RFP,HIV Env fusion,PABP FP inh,CSC inhib
Cc1ccc(-c2csc(N(C)C(=O)c3c(C)nn(-c4ccccc4)c3Cl)n2)cc1,1,i,-21,-1,-7,nt,4,nt
COc1ccc(OC)c(-c2nc(C(=O)NC3CCN(Cc4ccccc4)CC3)cc3c2[nH]c2ccccc23)c1,-20,i,-4,1,-1,nt,-25,-1
COc1cc(Nc2c3c(nc4ccccc24)CCCC3)cc(OC)c1OC,-4,i,nt,0,0,30,-2,-4
COc1ccc(C2CC(c3ccccc3)Nc3nc(N)nn32)cc1 (stereo not drawn),-4,nt,-20,5,6,-23,0,20
NC(=NCc1ccccc1)C(N=Nc1ccccc1)C(=O)NCc1ccccc1 (stereo not drawn),nt,nt,1,0,2,4,nt,nt
CC(C)c1ccc(NC(=O)C2C3C=CC4(CN(CCCN5CCOCC5)C(=O)C24)O3)cc1 (stereo not drawn),-10,i,-14,-1,2,-73,-8,-6
COc1ccc(NC(=O)COc2ccc(C(=O)OCC(=O)N(C)C3CCS(=O)(=O)C3)cc2OC)cc1 (stereo not drawn),8,i,-14,4,2,-10,9,-5
Cc1ccc(NC(=O)CCn2c(=S)oc3ccccc32)cc1F,-5,i,-12,2,5,9,-20,-9
COC(=O)Cc1nc2ccccc2[nH]1,-10,nt,-16,2,7,nt,32,-6
CCOC(=O)C1=C(O)/C(=C/c2cc(C)n(-c3ccccc3)c2C)N=C1C,45,i,nt,-16,2,3,24,0
Cc1ccc(C)c(N2CCN(C(=O)CCCOc3cc(=O)n(C)c4ccccc34)CC2)c1,2,i,6,17,-8,-3,9,-14
CCN(CC(=O)Nc1c(F)cccc1F)C(=O)C1Cc2ccccc2CN1S(=O)(=O)CC (stereo not drawn),nt,i,10,-3,1,-1,nt,-1
COc1ccccc1Oc1ccc2c(c1)C(=O)N(c1ccc(C)cc1)C2=O,-6,i,nt,3,3,nt,-4,-2
COc1ccc(/C=N/NC(=O)c2cccc([N+](=O)[O-])c2)c2ccccc12,-2,i,23,3,-4,-22,2,50
Cc1ccc(C)c(NC(=O)CCOc2ccccc2)c1,0,i,-7,-2,-1,-2,-6,-9
COc1ccc(OC)c(-c2cc(C(=O)O)c3cc4ccccc4cc3n2)c1,nt,nt,-11,-1,4,10,nt,nt
C/C(=N/NC(=O)c1ccc2c(c1)OCO2)c1ccc(NC(=O)C(F)(F)F)cc1,3,i,-14,4,8,-10,-2,1
O=C(O)C1CCCCC1C(=O)NCCc1ccc(Cl)cc1 (stereo not drawn),-1,i,13,0,-1,nt,-6,-6
CC/C(=N\NC(=O)c1ccncc1)C12CC3CC(CC(C3)C1)C2,-2,i,-13,0,1,-45,-3,-12
COc1ccccc1C(=O)NCC(=O)NCCSc1ccc(Br)cc1,nt,nt,-13,6,-2,nt,nt,-7

# Part of the list above, reformatted.
# Sequence of screens – eIF4H FP inh	Rce1 inh	UUG fidelity	MT1-MMP act inh	MT1-MMP act inh RFP	HIV Env fusion	PABP FP inh	CSC inhib
- COc1ccc(C2CC(c3ccccc3)Nc3nc(N)nn32)cc1 (stereo not drawn)
  -4	nt	-20	5	6	-23	0	20
- NC(=NCc1ccccc1)C(N=Nc1ccccc1)C(=O)NCc1ccccc1 (stereo not drawn)
  nt	nt	1	0	2	4	nt	nt
- CC(C)c1ccc(NC(=O)C2C3C=CC4(CN(CCCN5CCOCC5)C(=O)C24)O3)cc1 (stereo not drawn)
  -10	i	-14	-1	2	-73	-8	-6
- COc1ccc(NC(=O)COc2ccc(C(=O)OCC(=O)N(C)C3CCS(=O)(=O)C3)cc2OC)cc1 (stereo not drawn)
  8	i	-14	4	2	-10	9	-5
- Cc1ccc(NC(=O)CCn2c(=S)oc3ccccc32)cc1F
  -5	i	-12	2	5	9	-20	-9
- COC(=O)Cc1nc2ccccc2[nH]1
  -10	nt	-16	2	7	nt	32	-6
- CCOC(=O)C1=C(O)/C(=C/c2cc(C)n(-c3ccccc3)c2C)N=C1C
  45	i	nt	-16	2	3	24	0

# More structures:
SMILES,eIF4H FP inh,Rce1 inh,UUG fidelity,MT1-MMP act inh,MT1-MMP act inh RFP,HIV Env fusion,PABP FP inh,CSC inhib
CCN(c1ccc(OC)cc1)S(=O)(=O)c1nnc(NC(=O)CC(C)C)s1,2,i,-9,1,-5,6,-6,-7
O=C(Nc1ccc(O)c(-c2nc3ccccc3o2)c1)C1(c2ccc([N+](=O)[O-])cc2)CCCC1,-7,i,-13,-3,-9,55*,8,25
Cc1nc2ccccn2c1C(=O)CSc1ccccc1Cl,-2,i,-10,1,-16,nt,0,7
CN(CCOc1ccccc1)C(=O)c1cc([N+](=O)[O-])ccc1N1CCOCC1,nt,i,-12,-5,-5,-2,nt,-3
O=C(O)CC1NC(=O)N(c2ccc(Cl)cc2)C1=O (stereo not drawn),-3,i,-14,2,5,nt,4,16
O=C(NN1C(=O)/C(=C\c2ccc(O)c([N+](=O)[O-])c2)SC1=S)c1ccccc1Cl,-3,i,-14,18,6,1,4,15
CCCC(=O)Oc1ccc(-c2nccc(C(OC)OC)n2)cc1,-2,i,nt,2,3,-7,0,-1
CC1CN(C(=O)COC(=O)CSc2ccc(C(N)=O)cc2[N+](=O)[O-])CC(C)O1 (stereo not drawn),nt,i,nt,-1,2,13,nt,-13
O=C(NC(=S)Nc1nc(-c2ccc([N+](=O)[O-])cc2)cs1)c1ccco1,6,i,-11,3,3,nt,-1,5
O=c1c2c(nc(NCCO)n1CC1CCCCC1)-c1ccccc1CC21CCCC1,-5,i,-16,-8,-6,-56,8,-4
O=C(NCc1ccccn1)C1CCCN(Cc2cnn(-c3ccccc3)c2-n2cccc2)C1 (stereo not drawn),-11,i,nt,-1,-1,nt,-11,-5
O=C(NCC1CCCO1)c1ccc(F)c2ccccc12 (stereo not drawn),-5,i,-19,-5,-2,-6,10,6
CCOC(=O)c1sc(NC(=O)CN(CC(C)C)CC(C)C)c(C(=O)OCC)c1C,-10,i,5,-3,-21,15,-12,32
NC(=O)C1CCN(c2nc(-c3ccccc3)nc3ccccc23)CC1,1,nt,-17,-1,-2,-12,-6,18
CC(=O)OC(C(=O)Nc1nncs1)c1ccccc1 (stereo not drawn),nt,nt,-19,4,9,5,nt,nt
O=C(COC(=O)CNC(=O)c1ccccc1F)NCCC1=CCCCC1,4,i,nt,-1,0,3,-4,-11
CN(CC(=O)O/N=C(\N)c1ccc(Br)cc1)S(=O)(=O)c1ccccc1,-17,i,-10,6,-2,-5,1,6
O=c1ccc2cc(S(=O)(=O)N3CCN(c4ccccc4F)CC3)ccc2[nH]1,4,i,-15,0,-11,-7,-6,7
Cc1nc2oc3c(=O)[nH]cnc3c2c2c1COC(C)(C)C2,32,i,-4,2,1,-25,30,nt
COc1cc(NC(=O)CC(C)S(=O)(=O)c2ccc3c(c2)NC(=O)CO3)cc(OC)c1OC (stereo not drawn),-13,i,-13,-3,3,-6,0,-6
COc1ccc(/C(N)=N/OC(=O)Oc2ccccc2)cc1OC,1,i,-1,0,0,25,8,-6
O=C(Nc1ccccc1)c1ccccc1N=Cc1cccc(O)c1,4,i,-4,-3,-7,-14,-2,63
Cc1nn(C)c(NC(=O)c2ccccc2Cl)c1Cl,-8,i,-2,6,5,-9,-4,-13
O=C(CN1C(=O)/C(=C/c2ccccc2F)Oc2ccccc21)N1CCN(c2ccccn2)CC1,-4,i,nt,1,2,-19,1,-15
Cc1[nH]c2ccccc2c1C(=O)COC(=O)c1nccnc1N,nt,nt,12,-2,2,-9,nt,nt
O=C(c1ccccc1)c1ccc(Oc2ccc(C(=O)O)c(C(=O)O)c2)cc1,11,i,11,1,1,-38,-1,-3
COc1ccc(Cc2c(O)nc(SCC(=O)NC(C)(C)C)[nH]c2=O)cc1,1,i,nt,1,2,-13,-1,-12
Fc1ccc(CSc2nc3ncc(Br)cc3[nH]2)cc1,-1,i,nt,1,0,nt,1,-9
O=C(Nc1ccncc1)c1cncc(Br)c1,0,i,-11,-8,-6,nt,4,-1
Brc1ccc(Nc2c3c(nc4ncnn24)CCC3)cc1,-20,i,-24,2,-2,32,5,-12
CCn1cc(/C=C(\NC(=O)c2ccc(OC)cc2)C(=O)NCCCn2ccnc2)c2ccccc21,nt,nt,-4,-3,3,-12,nt,nt
O=C(C1CCCC1)N1CCN(S(=O)(=O)c2cccc(Cl)c2Cl)CC1,2,i,9,3,-1,2,-1,3
CCCCN(C(=O)c1cc(S(=O)(=O)N2CCCCCC2)ccc1OC)c1ccccc1,nt,i,-7,4,-19,93*,nt,-5
CC(C)Oc1ccc(C(=O)CCN2CCOCC2)cc1,nt,i,nt,-1,-2,9,nt,10
Cc1ccc(NC(=O)COC(=O)Cc2c(F)cccc2Cl)cc1S(=O)(=O)N1CCOCC1,nt,i,-15,1,6,3,nt,-5
CC1CCN(C(=O)CSc2nc3c(c(=O)n(C)c(=O)n3C)n2C)CC1,2,i,-4,-2,3,-7,12,-20
CC(=O)Nc1ccc(-c2ccnc3c2CC(C)(C(=O)Nc2cccc(OC(F)(F)F)c2)O3)cc1 (stereo not drawn),nt,nt,-16,-9,-8,-36,nt,nt
COC(=O)c1cc(Br)c(=O)n(-c2ccccc2F)c1,-8,i,-27,-2,1,-24,-7,-25
COc1ccc(NC(=O)COC(=O)Cn2cnc3ccccc3c2=O)cc1OC,-6,i,6,6,8,-15,4,-6
C[C@H](CO)N1C[C@H](C)[C@@H](CN(C)C(=O)Nc2ccc3c(c2)OCO3)Oc2c(NS(=O)(=O)c3ccccc3)cccc2C1=O,nt,nt,12&12,0,7,-10[16.7 µM],nt,1
CC1CCN(c2ccc3c(c2)S(=O)(=O)c2cccc(C(=O)NC[C@@H]4CCCO4)c2C3=O)CC1,nt,nt,17,-91,2,0,nt,nt
CCCCNc1ncnc2c1cnn2-c1ccc(C)cc1C,-8,i,-9,-6,-4,11,-1,0
CC1(C)CCC(=O)N(c2ccc(OC(F)(F)F)cc2)C1=O,0,i,-15,7,1,21,5,nt
Cc1ccc(C(=O)Oc2ccc(Cl)c3cccnc23)cc1[N+](=O)[O-],0,i,-21,8,6,-277,-5,37
CC(=O)Nc1ccc(S(=O)(=O)NCc2ccc3[nH]c(C)cc3c2)cc1,5,i,-8,31*,39*,-23,-4,4
Cc1ccc(-n2ncc3c(NCC4CCCO4)ncnc32)c(C)c1 (stereo not drawn),4,nt,-10,-3,-7,nt,11,-1
COc1ccc(S(=O)(=O)N2CCOCC2)cc1NC(=O)c1c(C)noc1C,nt,nt,-8,1,2,2,nt,nt
NC(=O)N/N=C/c1ccc2cccc(OCc3ccccc3)c2n1,-13,i,-20,-4,-2,17,3,5
CC(=O)c1cc2c(cc1NC(=O)c1ccc(C)cc1)OCCO2,-9,nt,-4,-3,-1,-2,6,-2
Cc1ccc(C)c(OCC(=O)N2CCN(C(=O)c3ccco3)CC2)c1,0,i,2,6,8,nt,1,-13

# One compound at a time (already shown). Order of screens: eIF4H FP inh | Rce1 inh | UUG fidelity | MT1-MMP act inh | MT1-MMP act inh RFP | HIV Env fusion | PABP FP inh | CSC inhib
# Cc1ccc(-n2ncc3c(NCC4CCCO4)ncnc32)c(C)c1 (stereo not drawn) as listed: 4 | nt | -10 | -3 | -7 | nt | 11 | -1
# CC1(C)CCC(=O)N(c2ccc(OC(F)(F)F)cc2)C1=O as listed: 0 | i | -15 | 7 | 1 | 21 | 5 | nt
# CCCCNc1ncnc2c1cnn2-c1ccc(C)cc1C as listed: -8 | i | -9 | -6 | -4 | 11 | -1 | 0
